Screens as filed in PubChem BioAssay.
LANA-H2B inh: blocks KSHV LANA binding to histone H2A/H2B; Q9QR71; cell-free LANA-H2A/H2B peptide, fluorescence polarization; inhibition, % (no concentration beside the values); 0.6% of 320,000 active; in the data active = inhibition mostly above about 10%, no sharp cut-off; inactive = mostly below about 6.7%;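 also: stock transfer was 7.5 nL into about 10 µL; 0% = median of vehicle wells and 100% = median of positive control wells; one replicate is shown; the record names a cut of 25% in any replicate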
Target sequence (Q9QR71 whole entry, looked up): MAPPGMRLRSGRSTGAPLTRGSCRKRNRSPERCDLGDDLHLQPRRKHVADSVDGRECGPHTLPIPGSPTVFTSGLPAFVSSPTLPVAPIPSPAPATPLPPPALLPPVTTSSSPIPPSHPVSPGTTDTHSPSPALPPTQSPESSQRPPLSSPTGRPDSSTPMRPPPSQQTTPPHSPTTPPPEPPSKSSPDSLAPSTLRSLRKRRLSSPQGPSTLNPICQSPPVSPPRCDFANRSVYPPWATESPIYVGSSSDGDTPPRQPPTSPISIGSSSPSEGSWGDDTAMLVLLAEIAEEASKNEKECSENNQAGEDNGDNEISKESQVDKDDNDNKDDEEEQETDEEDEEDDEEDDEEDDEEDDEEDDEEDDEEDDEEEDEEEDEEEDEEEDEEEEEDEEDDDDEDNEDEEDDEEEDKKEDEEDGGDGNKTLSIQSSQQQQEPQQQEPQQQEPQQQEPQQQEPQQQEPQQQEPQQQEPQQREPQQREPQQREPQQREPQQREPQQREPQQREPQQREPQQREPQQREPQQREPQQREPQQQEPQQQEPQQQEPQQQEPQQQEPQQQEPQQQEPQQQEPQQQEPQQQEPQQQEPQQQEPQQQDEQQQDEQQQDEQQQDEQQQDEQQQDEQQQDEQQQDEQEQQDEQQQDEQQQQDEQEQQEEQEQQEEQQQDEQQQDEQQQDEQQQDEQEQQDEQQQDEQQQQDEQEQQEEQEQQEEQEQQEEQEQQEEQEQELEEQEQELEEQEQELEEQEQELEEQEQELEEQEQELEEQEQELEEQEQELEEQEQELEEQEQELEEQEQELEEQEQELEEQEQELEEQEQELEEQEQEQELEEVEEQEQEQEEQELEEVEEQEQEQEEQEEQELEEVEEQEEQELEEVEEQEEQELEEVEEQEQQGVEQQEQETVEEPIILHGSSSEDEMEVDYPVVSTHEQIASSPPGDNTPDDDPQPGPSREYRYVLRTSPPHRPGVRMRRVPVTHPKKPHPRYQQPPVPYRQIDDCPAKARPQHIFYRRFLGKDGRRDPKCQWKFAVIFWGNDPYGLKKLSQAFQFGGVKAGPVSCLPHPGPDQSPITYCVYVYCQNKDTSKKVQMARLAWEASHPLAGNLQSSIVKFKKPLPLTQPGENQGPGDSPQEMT
Calb FLC: C. albicans growth modulation with fluconazole; C. albicans CaCi-2 (fluconazole-resistant clinical isolate) + fluconazole, Alamar Blue growth, 48 h; growth inhibition, % (concentration not given with the values); 0.57% of 300,000 active; AID 1979;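 active = most replicates above 75%; inconclusive = exactly half above 75%; inactive = most below 75%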;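 also: all wells also contain fluconazole at 8 µg/ml as a sub-toxic cotreatment; 0% = median of DMSO wells and 100% = median of geldanamycin control wells; wells of about 8 µL received 7.5 nL stock; the first replicate is given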
Beta2AR agonist: agonists of human beta-2 adrenergic receptor inducing internalization; P07550; AID 504454; response, % (test concentration not listed); 0.43% of 340,000 active; Am2.2-beta2AR cells, FAP receptor internalization, flow cytometry; reference of the scale not given here;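 active = response above a set limit, near 3 SD of response in nonfluorescent compounds, cut at about 42% in these data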;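 also: stock transfer was 100 nL into about 11 µL; a reference agonist was the positive control; negative values mostly stem from fluorescent compounds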
ALR inh: blocks human ALR sulfhydryl oxidase activity; inhibition, % (concentration not given with the values); 3.8% of 290,000 active; purified ALR, DTT oxidation, H2O2 HRP-luminol luminescence; P55789;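 active = mean and each replicate at 75% or more; inconclusive = only one of the two met; inactive = neither met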;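 also: stock transfer was 7.5 nL into about 7.5 µL; 0% = neutral wells and 100% = wells with inactivated enzyme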
RanGTP-Imp inh: inhibitors of RanGTP-importin-beta interaction, primary screen, biochemical, FRET, CFP-Ran, YFP-importin-beta, homogeneous; cell-free CFP-Ran/YFP-importin-beta FRET ratio; inhibition, % (no concentration beside the values); 1.1% of 300,000 active; AID 2216;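 active = most replicates above 15%; inconclusive = exactly half above 15%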;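 also: 0% = DMSO wells and 100% = Ran loaded with GDP instead of GTP; wells of about 40 µL received 100 nL stock; the first replicate is given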
Vif A3G: inhibitors of Vif binding to APOBEC3G peptide, primary screen, biochemical, TR-FRET, GST-Vif 1-94, biotin-A3G peptide, dose response retest (AID 1117319); 0.57% of 260,000 active; inhibition, %; hits with a dose series show IC50 in µM; TR-FRET GST-Vif / biotin-A3G peptide binding; higher % means a stronger effect; test concentration not given here; strong numbers were not always called active;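 active = above the screen mean plus three standard deviations and confirmed in dose response; inconclusive = results disagree or hit not tested in dose response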;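 also: Vif residues 1-94 fused to GST binding biotinylated APOBEC3G peptide 110-148; 0% = full assay without inhibitor and 100% = GST in place of GST-Vif; retest series ran down from 100 µM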
HNF4A DNA FP: change in binding of human HNF4 alpha to DNA; P41235; 0.3% of 360,000 active; activity change, % at 10 µM; HNF4a-FITC DNA binding, fluorescence polarization, 1 h; in the data active = activity change above about 30%, passing the limit was not always enough;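 also: controls were the assay level and a saturating level of protein; the project sought stronger binding though the title names inhibitors; some compounds called inactive have numbers as strong as hits; positive values seem to mean higher polarization but the record does not say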
Starred values were filed as active, the others as inactive; i = inactive; ? = inconclusive; nt = not tested or not shown; + = active, no number.

SMILES	Vif A3G	Calb FLC	RanGTP-Imp inh	LANA-H2B inh	HNF4A DNA FP	ALR inh	Beta2AR agonist
Cc1cc(C(F)F)n2ncc(C(=O)NC3CCCCCC3)c2n1	1%	nt	-1.0	-3.9	-0.4	-6	15
COc1ccc(OCCn2c(N)nc3ccccc32)cc1	nt	-13	2.3	2.3	3.5	-1	9
Cc1cccnc1NC(=O)c1ccc(NS(=O)(=O)c2ccc3[nH]c(=O)[nH]c3c2)cc1	-3%	1	12	-0.4	-1.4	-9	-6
O=C(NCc1ccncc1)C1COc2ccccc2O1 (configuration not stated)	-2%	2	-1.0	i	-3.5	-9	1
CCOC(=O)N1CCC(=NNC(=O)COc2ccc(C#N)cc2)CC1	23%	6	2.8	8.3	-3.3	9	2
Cc1cc(C)cc(N(C(=O)CNC(=O)c2cccs2)C(C(=O)NC2CCCC2)c2cccnc2)c1 (configuration not stated)	-4%	-2	-1.4	2.6	-3.1	-4	-12
O=c1cc(NCC2CCCO2)[nH]c(=O)n1-c1ccc(Cl)cc1 (configuration not stated)	10%	-5	2.1	-1.9	-5.1	15	0
CC(=O)C1(C)N(O)C(C)(C)C(c2cccs2)=[N+]1[O-] (configuration not stated)	-5%	24	0.5	2.9	-3.2	10	0
CCCN(CCC)C(=O)C1CCN(c2cc(C)nc3c(-c4ccc(OC)c(OC)c4)c(C)nn23)CC1	2%	4	1.0	4.1	1.9	1	15
O=C(CN1CCCCC1)NNc1nc(-c2ccccc2)c2cc(Br)ccc2n1	6%	-4	5.3	-0.9	2.8	90*	5
CS(=O)(=O)N(CC(=O)Nc1ccccc1Sc1ccccc1)c1ccc(F)cc1	-3%	-1	-2.5	-3.5	2.2	-4	2
COc1ccc(C(=O)C2CCCN(C(=O)c3ccc(OC)o3)C2)c(C)c1 (configuration not stated)	nt	15	4.8	-10	-1.1	-4	-6
CC1CCN(C(=O)c2cccc(S(=O)(=O)N3CCN(c4ccccc4)CC3)c2)CC1	-7%	-15	0.8	1.1	-4.5	nt	5
CCCC#CCN1CCN(C23CC4CC(CC(C4)C2)C3)CC1	-8%	-4	-2.3	-3.9	0.9	2	-8
Cc1ccccc1Nc1nc(N2CCOCC2)nc(N2CCOCC2)n1	nt	-6	-0.8	8.0	1.1	0	3
CCn1ccnc1CN(C)C(=O)CCc1nnc(CCC2CCCCC2)o1	-5%	-1	7.0	-2.4	-4.2	-12	-8
O=C(CNC(=O)c1ccccc1F)NCCCN1CCCC1=O	nt	-5	nt	4.0	-1.1	3	1
CCC(=O)Nc1ccc(S(=O)(=O)Nc2cccnc2)cc1	23%	7	2.3	-8.7	-1.4	-8	3
CCc1ccccc1NS(=O)(=O)c1ccc2c(c1)C(C)(C)C(=O)N2C	1%	-5	2.3	nt	-2.1	nt	3
C/C(=N/NC(=O)Cc1ccccc1)c1ccc(C)s1	1%	15	4.2	-1.2	0.2	4	1
COc1cccc(CNc2ccc(S(=O)(=O)Nc3nccs3)cc2)c1O	17%	7	2.8	3.5	2.4	93*	11
COc1ccc(NC(=O)CCCn2c(=O)c3sccc3n(Cc3ccc(C)cc3C)c2=O)cc1	-7%	9	0.1	0.1	3.6	1	1
Cc1ccc(OCC(=O)Nc2ccccc2N2CCOCC2)c(C)c1	-2%	0	-1.1	2.3	-0.1	-1	15
NC(=S)NN=C1CCCCC12CCCC2	-10%	nt	nt	nt	2.0	nt	-9
Cc1ccc(NC(=O)CN(C)C(=O)Cn2ncc(Cl)c(Cl)c2=O)cc1	nt	20	1.5	+	1.9	7	8
Cc1cc(C)c(NS(=O)(=O)c2ccc3c(c2)NC(=O)CCS3)c(C)c1	nt	9	11	-1.4	0.5	-2	0
COc1ccc(C(CNC(=O)c2ccc(-c3ccccc3)cc2)N(C)C)cc1OC (configuration not stated)	-7%	-3	2.8	0.0	-4.0	-6	12
Cc1c(C)n2c(SCC(=O)NC3CCCC3)nnc2[nH]c1=O	-2%	-12	1.4	7.8	-3.6	2	-8
CN1CCN(c2ccc(NC(=O)c3ccc4ccccc4c3)cc2)CC1	nt	21	5.4	-1.3	3.8	0	7
CCC1S/C(=N/S(=O)(=O)c2ccc(N)cc2)NC1=O (configuration not stated)	2%	nt	nt	nt	2.4	nt	4
Cc1nc2ccccc2n1/N=C/c1ccc([N+](=O)[O-])s1	1%	25	?	4.6	-0.3	-23	21
CCC(CC)NC(=O)CSc1nnc(-c2c[nH]c3ccccc23)o1	1%	-22	-1.9	4.4	-3.0	-8	2
CCOC(=O)c1nc(Nc2ccccc2CC)c2ccccc2n1	0%	-15	6.4	2.3	-1.9	0	3
CCC(=O)Nc1nc2ccc([N+](=O)[O-])cc2s1	2%	-8	1.7	-0.7	-2.2	-8	-3
CCN(CC(=O)Nc1c(F)cccc1F)C(=O)CSCc1c(C)noc1C	5%	1	-1.9	2.3	1.2	nt	-7
COc1ccc(CNC(=O)c2cnc(C)cn2)cc1	10%	20	0.1	-4.3	-3.2	1	-3
CCCOC(=O)c1ccc(NC(=O)C2C3CCC(C3)C2C(=O)O)cc1 (configuration not stated)	nt	4	-0.7	0.9	-0.9	-6	2
O=C1CSC(c2cccnc2)N1Cc1cccnc1 (configuration not stated)	66%	10	-0.3	-0.7	2.0	-27	-5
COC(=O)/C(=C/c1ccc(OC)cc1)NC(=O)c1ccco1	4%	-9	2.0	-8.2	3.1	0	4
Fc1cccc(Cl)c1CSc1nnc(CN2CCOCC2)n1-c1ccccc1	2%	-7	-1.0	1.4	-2.3	-3	-3
Cc1nn(CC(=O)OCC(=O)NCCc2ccc(S(N)(=O)=O)cc2)c(C)c1[N+](=O)[O-]	-6%	nt	nt	-1.2	-0.2	0	-5
CCc1ccc(/C=C2\SC(=S)N(CCC(=O)NC3=NCCS3)C2=O)cc1	-3%	?	-11	-3.9	nt	-4	nt
Cc1c(N2C(=O)C(=O)/C(=C(/O)c3ccc(Cl)cc3)C2c2ccccc2)c(=O)n(-c2ccccc2)n1C (configuration not stated)	7%	5	?	-6.2	1.6	-5	0
COc1cccc(/C=C/c2nc(C#N)c(NCC(C)C)o2)c1	-10%	0	5.0	2.4	0.8	0	-2
C[C@@H]1CN([C@H](C)CO)C(=O)c2cc(NC(=O)NC3CCCCC3)ccc2O[C@H]1CN(C)S(C)(=O)=O	nt	nt	nt	7.7	-0.7	0	-1
Cc1ccc(NC(=O)CSc2nnc(Cc3ccccc3)c(=O)[nH]2)c(C)c1	3%	11	1.5	3.6	2.0	-3	-4
Cc1cc(NC(=O)C(C)SCC(=O)Nc2ccccc2OC(F)F)no1 (configuration not stated)	nt	6	4.1	-2.4	2.7	1	6
CC1CCCC(NC(=O)c2cccc(S(=O)(=O)N3CCN(c4ccccc4)CC3)c2)C1C (configuration not stated)	-1%	-2	4.4	-1.1	0.7	-11	2
CN(Cc1ccc2nonc2c1)Cc1nc(CC2CC2)no1	2%	0	8.9	-0.9	1.6	nt	-1
COc1ccc(/C=C/C(=O)NC2CCN(Cc3ccccc3)CC2)cc1OC	nt	-12	-0.3	-4.0	0.1	-6	-3

One compound at a time, from the list above. Order of screens: Vif A3G	Calb FLC	RanGTP-Imp inh	LANA-H2B inh	HNF4A DNA FP	ALR inh	Beta2AR agonist
Cc1nn(CC(=O)OCC(=O)NCCc2ccc(S(N)(=O)=O)cc2)c(C)c1[N+](=O)[O-] in the list: -6%	nt	nt	-1.2	-0.2	0	-5
CN(Cc1ccc2nonc2c1)Cc1nc(CC2CC2)no1 in the list: 2%	0	8.9	-0.9	1.6	nt	-1
C[C@@H]1CN([C@H](C)CO)C(=O)c2cc(NC(=O)NC3CCCCC3)ccc2O[C@H]1CN(C)S(C)(=O)=O in the list: nt	nt	nt	7.7	-0.7	0	-1

New compounds follow
SMILES	Vif A3G	Calb FLC	RanGTP-Imp inh	LANA-H2B inh	HNF4A DNA FP	ALR inh	Beta2AR agonist
CCCc1cc(C(=O)NCc2ccco2)no1	6%	23	1.9	2.7	-3.8	nt	-7
COc1ccccc1NC(=O)Nc1ccc(NC(=O)c2ccccc2O)cc1	-6%	-7	-3.2	-0.9	-0.3	nt	11
CC(OC(=O)CNC(=O)c1ccc(Cl)c(Cl)c1)C(=O)N1CCOCC1 (configuration not stated)	-9%	5	-2.6	-0.1	-0.7	-7	-4
COc1ccccc1C(=O)CN1C(=O)NC2(CCCc3ccccc32)C1=O (configuration not stated)	7%	nt	nt	-4.6	-0.6	1	0
COc1cccc(NC(=O)CN(C)C(=O)c2ccc(OCc3ccccc3)c(OC)c2)c1	1%	3	1.0	1.4	3.3	-18	4
Cc1ccc2[nH]cc(C(=O)CCl)c2c1	33%	47	3.0	-1.1	1.6	59	21
CC(=O)N(C)N(C)c1cc(C)nc(N)n1	-4%	-9	2.0	5.5	-3.1	-4	-4
COC(=O)c1nnn(CC(=O)Nc2cccc(OC)c2)c1C(=O)OC	-8%	2	-2.2	-1.1	0.4	-8	6
CCc1cc(=O)oc2cc(OCC(=O)OC)c(Cl)cc12	-11%	19	nt	1.0	-0.9	-5	13
COc1ccc(OC)c(NC(=O)Nc2ccc3[nH]ccc3c2)c1	nt	-2	-1.8	-4.2	-0.8	-4	0
CCCCn1c(N)c(N(CC(C)C)C(=O)CN(C)S(=O)(=O)c2ccc(NC(C)=O)cc2)c(=O)[nH]c1=O	-5%	-7	0.2	-1.6	-1.9	-4	-4
O=C(CCCOc1ccccc1)N1CCN(S(=O)(=O)c2cccc(F)c2)CC1	-1%	nt	0.0	1.9	3.3	-1	-7
Cc1cccc(C)c1NC(=O)C(c1ccc(Cl)cc1Cl)N1CCCCC1 (configuration not stated)	1%	-4	-0.4	-0.3	3.6	2	9
COc1ccc(Cl)cc1N1C(=O)CC(Sc2ccccc2N)C1=O (configuration not stated)	nt	-4	-1.0	6.1	-2.4	-1	-14
O=C(CN1CCCCCC1)Nc1cccc2c1OCO2	0%	-6	1.7	1.1	3.3	-2	0
O=S(=O)(NCCC1CC1(Cl)Cl)c1ccccc1 (configuration not stated)	-6%	-34	3.0	0.6	0.3	-4	3
Cc1ccc(-c2n[nH]c(=S)n2/N=C/c2cccs2)cc1	nt	-3	-1.8	1.1	0.4	8	-3
COc1ccc(S(=O)(=O)N2CCCc3ccccc32)cc1OC	nt	11	1.6	3.1	-3.3	2	-5
O=C(CN(Cc1cccs1)C(=O)CNS(=O)(=O)c1ccccc1)NCc1ccco1	0%	7	2.6	nt	-3.8	nt	16
COCCn1c(SCC#N)nnc1-c1ccc(OC)cc1	8%	10	-1.0	1.1	-0.6	nt	14
Cc1ccc(N2C(=O)C3CC(c4ccccc4)=C4C5C=CC(C6C(=O)N(c7ccc(C)cc7C)C(=O)C56)C4C3C2=O)c(C)c1 (configuration not stated)	-2%	-4	0.8	-0.8	1.2	-10	0
COc1ccccc1CNC(=O)/C=C/c1ccc(S(=O)(=O)N2CCOCC2)cc1	-2%	-4	2.7	-9.0	2.4	-4	3
CC(OC(=O)Cc1ccc(F)cc1)C(=O)NCc1ccc2c(c1)OCO2 (configuration not stated)	-5%	6	-0.3	-1.4	0.5	6	-1
Cc1c(Cl)cccc1N1C(=O)CC(NNC(=O)c2cccnc2)C1=O (configuration not stated)	7%	1	2.2	1.7	7.3	25	2
CCOc1ccc(Cc2noc3c2C(=O)CC(C)(C)C3)cc1OCC	-10%	4	-3.1	3.1	0.6	-11	-5
CCCC[C@@H]1CCCO[C@@](C(=O)NCc2ccccn2)(C(F)(F)F)C1	nt	6	0.9	-1.0	-2.6	1	-12
